# Screening data as filed in PubChem BioAssay.
# Arbovirus anti: antivirals against arbovirus infection, primary screen, cell-based, full library, 10K replicate subset. arbovirus infection cell-based antiviral screen. inhibition, % at 10 µM. actives 0.37% (n = 200,000). AID 1251, 2008;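 active means inhibition from about 30%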;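 further: bluetongue infection of BSR cells; cell survival read as ATP light after 72 h; 0% = infected wells without compound and 100% = uninfected wells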
# Mtb bLac sens: beta-lactam sensitization of Mtb H37Rv, H37Rv; M. tuberculosis H37Rv growth with meropenem, percent inhibition; hits of this screen are not shown here; inhibition, % at 25 µM; actives 0.27% (n = 330,000); AID 434955, 2010;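 active means about 74% or more and at least 40 points above the plate without the antibiotic, then above 30% in a dose series; inconclusive means first-round hits that could not be retested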;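 further: growth measured after seven days incubation then overnight dye step; 0% = bacteria only wells and 100% = bacteria with antibiotic; twin plates without the antibiotic show which effects depend on it; some results filed as inactive read as strong as hits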
# RecA splice inh: Mtb RecA intein splicing inhibitors, primary screen, biochemical, fluorescence, HTS; Protein RecA (Mycobacterium tuberculosis (strain ATCC 25618 / H37Rv)), P9WHJ3; cell-free RecA intein splicing; inhibition, %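 (about 9 µM by stock and volumes)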; actives 0.75% (n = 290,000); AID 2221, 2009; in the data active means inhibition above about 30%; inconclusive means no clear call, values can overlap the other calls;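 further: 0% = vehicle wells and 100% = reference inhibitor control wells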
# Target sequence (P9WHJ3 whole entry, looked up, canonical isoform): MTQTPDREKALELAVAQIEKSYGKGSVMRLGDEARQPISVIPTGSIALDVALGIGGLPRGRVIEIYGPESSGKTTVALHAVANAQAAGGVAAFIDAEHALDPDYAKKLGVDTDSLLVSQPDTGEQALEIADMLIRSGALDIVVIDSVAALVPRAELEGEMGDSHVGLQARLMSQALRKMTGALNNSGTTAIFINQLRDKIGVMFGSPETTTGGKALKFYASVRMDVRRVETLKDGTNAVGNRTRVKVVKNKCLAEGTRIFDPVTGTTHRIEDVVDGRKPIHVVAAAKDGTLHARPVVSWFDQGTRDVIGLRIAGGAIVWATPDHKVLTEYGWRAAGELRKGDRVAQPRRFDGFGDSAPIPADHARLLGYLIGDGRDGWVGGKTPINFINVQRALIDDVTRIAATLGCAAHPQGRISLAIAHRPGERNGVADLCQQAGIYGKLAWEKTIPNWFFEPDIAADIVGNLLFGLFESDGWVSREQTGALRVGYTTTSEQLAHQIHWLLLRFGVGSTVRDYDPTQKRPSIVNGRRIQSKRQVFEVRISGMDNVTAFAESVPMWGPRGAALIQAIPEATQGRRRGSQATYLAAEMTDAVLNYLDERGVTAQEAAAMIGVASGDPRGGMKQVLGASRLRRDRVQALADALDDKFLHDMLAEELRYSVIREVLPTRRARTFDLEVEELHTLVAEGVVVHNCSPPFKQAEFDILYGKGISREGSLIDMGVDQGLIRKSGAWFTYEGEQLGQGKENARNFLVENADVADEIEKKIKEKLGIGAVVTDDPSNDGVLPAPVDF
# Mtb growth: M. tuberculosis H37Rv growth inhibitors, H37Rv strain (AID 1626); M. tuberculosis H37Rv growth inhibition; higher % means a stronger effect; actives 0.95% (n = 220,000); one-dose inhibition, % at 10 µM; IC50 in µM for titrated hits;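 active means confirmed in a dose series; inconclusive means inhibition above 80% but not taken into the dose series; inactive means below 80% or under 30% at every dose of the series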;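 further: bacteria incubated seven days before Alamar blue readout; 0% = bacteria only wells and 100% = bacteria with antibiotic wells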
# YopH inh: YopH tyrosine phosphatase inhibitors, primary screen, biochemical, fluorescence Ex485/Em525; inhibition, %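 (about 10 µM by stock and volumes)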; actives 0.16% (n = 140,000); AID 898, 2007;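 active means inhibition of 50% or more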;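 further: controls were vehicle for no effect and minimum signal wells for full effect; inactives centre near -20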
# Arbovirus anti repeat: recorded beside Arbovirus anti, whose call it bears; inhibition, %; measured here: 10K subset replicate screen; many hits read low in the repeat;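 first of two repeat runs on a subset; 0% = infected and 100% = uninfected wells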
# Numbers without * were called inactive; ? = inconclusive; · = no result given. Only part of the results is shown; rates above refer to the full screens.
SMILES,Arbovirus anti,Mtb bLac sens,RecA splice inh,Mtb growth,YopH inh,others
O=C(NNC(=O)c1sccc1-n1cccc1)c1ccccc1,-5.9,-6.5,-0.2,4.6%,-25.1,
CCC(O)(CC)C(=O)N=Nc1c(O)[nH]c2ccccc12,-4.9,0.7,3.4,-8.4%,·,
CC(C)(C)C1C=C(Sc2ccccc2)C(=O)O1 (centres undefined),3.6,0.7,2.6,7.9%,-18.9,
C=C(C)Cn1c(C2CC(=O)N(c3ccccc3F)C2)nc2ccccc21 (centres undefined),-2.7,-13.2,-5.4,2.2%,-19.9,Arbovirus anti repeat=-3.5
CCN1C(=O)c2ccccc2S(=O)c2ccc(C(=O)NCc3ccccn3)cc21 (centres undefined),6.3,-6.2,-1.5,-2.7%,-21.2,Arbovirus anti repeat=3.8
CCc1ccc(NC(=O)c2cc(CC(C)C)on2)cc1,-28.3,6.1,2.8,?,-29.6,
COc1cc(NC(=O)C2CCC(CNc3c(N4CCC(C)CC4)c(=O)c3=O)CC2)cc(OC)c1 (centres undefined),-3.9,3.8,-0.6,2.5%,-28.7,
O=C1c2ccccc2C(O)N1Cc1ccc2c(c1)OCO2 (centres undefined),-9.9,0.9,-1.5,-5.2%,-48.8,Arbovirus anti repeat=0.4
CC(C)NC(=O)c1ccccc1NC(=O)CCc1ccccc1,0.0,-8.9,·,-3.9%,-28.2,
COc1cccc(NC(=O)NC2CCN(CC(=O)Nc3ccccc3[N+](=O)[O-])CC2)c1,·,3.9,-0.2,·,·,
COc1ccc(-c2noc(CCC(=O)NCCN3CCN(c4ccccc4F)CC3)n2)cc1,9.3,6.1,-1.2,6.5%,10.0,
COC(=O)c1nn(-c2cccc(C)c2)c2nnc(Cc3ccc(C)cc3)c(=O)n12,0.4,-2.7,-1.7,0.9%,-11.8,
CSc1nc(C)cc(C)c1S(=O)(=O)c1ccccc1C,-2.4,-2.6,2.6,-2.6%,-10.5,
O=c1onc(-c2c(F)cccc2F)n1-c1ccccc1Cl,·,3.4,0.9,·,·,
CC(OC(=O)CN1C(=O)C2CC=CCC2C1=O)C(=O)Nc1ccc(F)cc1Cl (centres undefined),·,-9.1,-2.1,·,·,
CC(C)(C)C1CCC2(CC1)NC(CO)(CO)CO2 (centres undefined),-1.2,-2.5,1.5,-13.5%,-15.1,
Cn1c(COc2ccc3ccccc3c2)nnc1SCC(=O)OC1CCCCC1,-6.4,99.8,5.4,?,-25.0,
CCCCOc1ccc(C(=O)C(CN2CCOCC2)c2ccccc2)cc1 (centres undefined),-34.4,99.2,31.6*,66.5%,1.8,
COc1ccccc1C(=O)Nc1c[nH]c(=O)[nH]c1=O,·,-3.1,1.6,·,·,
Cc1ccc(NC(=O)CN(c2ccccc2)S(=O)(=O)N(C)C)cc1C,-5.8,-1.2,2.2,-2.5%,-11.0,

# 2 entries drawn at random from those above:
SMILES,Arbovirus anti,Mtb bLac sens,RecA splice inh,Mtb growth,YopH inh,others
COc1cc(NC(=O)C2CCC(CNc3c(N4CCC(C)CC4)c(=O)c3=O)CC2)cc(OC)c1 (centres undefined),-3.9,3.8,-0.6,2.5%,-28.7,
CC(C)NC(=O)c1ccccc1NC(=O)CCc1ccccc1,0.0,-8.9,·,-3.9%,-28.2,

# Remaining list, next part.
SMILES,Arbovirus anti,Mtb bLac sens,RecA splice inh,Mtb growth,YopH inh,others
CC(CCc1ccccc1)NC(=O)C1CC1 (centres undefined),·,-0.8,2.6,·,·,
O=C(Nc1ccccc1)OC1CN=C(N[N+](=O)[O-])NC1 (centres undefined),5.8,-11.6,-5.0,-1.4%,·,
O=C(CN(c1ccccc1)S(=O)(=O)c1ccc(F)cc1)N1CCCCCC1,9.3,-11.6,-4.9,2.5%,12.4,
CCOc1ccc(CCNC(=O)c2nnn(CC(=O)Nc3ccc(OC)cc3)c2N)cc1OCC,·,-1.4,-4.5,·,·,
CCCN1CCC(N(CCc2ccccc2)Cc2ccccc2)CC1,·,3.5,1.1,·,·,
Cc1ccc(CNC(=O)C2CCCN(c3nn4c(=O)cc(C)nc4s3)C2)cc1 (centres undefined),5.5,-0.9,-1.3,0.1%,·,
COc1cc(/C=C2/C(=O)N(c3ccc(C(=O)O)cc3)N=C2C)cc(OC)c1O,·,4.7,2.1,·,·,
Cc1nn(Cc2ccccc2)c(C)c1/C=N/NC(=O)CNc1cccc(C(F)(F)F)c1,5.5,4.1,-7.6,6.8%,-23.8,
FC(F)(F)c1ccc(C2[C@H]3CN(Cc4ccc(-c5ccccc5)cc4)[C@H](c4ccccc4)C34CC2(c2ccccc2)C4)cc1 (some centres undefined),·,-13.3,4.2,-8.2%,·,
Cn1nnnc1SCC1=C(C(=O)O)N2C(=O)C(NC(=O)C3CC3c3ccccc3)C2SC1 (centres undefined),2.2,-2.3,-1.5,-13.1%,·,
C=CCSc1nc(N)c(C#N)c(-c2ccc(C)cc2)c1C#N,-13.4,-7.3,0.9,4.3%,-29.3,
COc1ccc(NC(=O)CSc2nc(N)c(C(=O)Nc3ccc(N(C)C)cc3)s2)cc1,6.4,·,-1.9,10.8%,-18.6,
Cc1cc(C)cc(OCC(=O)OCC(=O)N2CCc3ccccc32)c1,·,63.3,-0.9,·,·,
COc1cc(OC)cc(C(=O)NCC(=O)OCC(=O)C(C)(C)C)c1,-6.4,3.0,2.2,0.6%,-21.5,
CCN(CC(=O)Nc1ccc(NC(C)=O)cc1)C(=O)Cc1ccc(S(=O)(=O)N2CCOCC2)s1,·,-3.1,1.7,·,·,
Cc1ccc(S(=O)(=O)NC(=O)NCC2CCN(S(=O)(=O)c3ccccc3)CC2)cc1,·,2.9,-18.6,·,·,
COc1ccc(S(=O)(=O)N2CCOCC2)cc1C(=O)Nc1nc2ccccc2s1,2.0,10.4,-1.2,1.7%,2.7,
Cc1ccc(C(=O)Nc2ccccc2C(=O)NC(CC(=O)O)C(=O)O)cc1 (centres undefined),3.0,9.0,0.1,4.0%,-63.3,
Cc1n[nH]c(C)c1S(=O)(=O)N(CC(=O)Nc1ccc2c(c1)OCCO2)c1ccc(C(C)C)cc1,13.9,0.7,1.7,-0.2%,17.6,Arbovirus anti repeat=-18.5
Cc1cc(C)c(S(=O)(=O)N2CCN=C2c2ccccc2)cc1C,-5.0,1.7,·,0.2%,-14.6,
COc1cccc(C(c2c(C)[nH]n(-c3ccccc3)c2=O)c2c(C)[nH]n(-c3ccccc3)c2=O)c1O,·,4.1,66.5*,·,·,
O=C(Nc1cccc2c1CCCC2)c1ccco1,2.0,24.0,0.7,4.9%,-39.9,
CCOc1cc(N2CCOCC2)c(OCC)cc1NC(=O)c1ccc(-n2ccnc2)c([N+](=O)[O-])c1,·,6.0,2.5,·,·,
Cc1cc(C)nc(NS(=O)(=O)c2ccc(NC(=O)CCC(=O)O)cc2)n1,·,-2.9,1.1,·,·,
Cn1c(Oc2ccccc2NCc2cc(Br)ccc2O)cc(=O)n(C)c1=O,31.5*,-0.7,6.8,·,-24.1,
CCC1CCCCN1C(=O)C(=O)c1cn(CC(=O)N(CC)CC)c2ccccc12 (centres undefined),·,-12.5,0.0,·,·,
O=C(O)CC/C(=N\Nc1ccc(Cl)cc1)c1cccs1,·,6.2,3.5,·,·,
Cc1cc(OCCN2CCC(Cc3ccccc3)CC2)ccc1[N+](=O)[O-],·,2.8,1.5,·,·,
CC(C)(C)OC(=O)NN1CC(=O)N2[C@@H](Cc3c([nH]c4ccccc34)C2(C)C)C1=O,·,-3.3,1.5,·,·,
O=C(NCc1ccco1)c1cccs1,-4.5,-1.3,6.1,2.7%,-48.4,
O=C(NCCc1ccc(Cl)cc1)c1cccnc1,5.0,10.2,-0.4,3.9%,-4.3,
CC(=O)c1ccc(NC(=O)C(C)N2CCN(C/C=C/c3ccccc3)CC2)cc1 (centres undefined),-0.5,87.8,-1.0,53.1%,·,
Cc1nn(CC(=O)Nc2ccc3c(c2)nc(CN2CCCC2)n3C)c(=O)c2ccccc12,2.4,10.5,3.1,-3.1%,-5.5,
CCCc1cc(C(=O)N(C2CCCCC2)C2CCCCC2)no1,2.8,3.2,13.4,1.4%,-39.4,Arbovirus anti repeat=-14.1
O=C(CSC1CC(=O)N(CC(c2ccccc2)c2ccccc2)C1=O)Nc1ccc(Cl)cc1 (centres undefined),-17.4,3.3,15.7,0.3%,-29.0,
COC(=O)C1CCCN1C(=O)C12CC3CC(CC(C3)C1)C2 (centres undefined),·,1.8,3.9,·,·,
CCOC(=O)c1[nH]c2ccc(C)cc2c1N=C(C)N(C)C,-3.7,7.6,-0.7,-15.9%,-22.8,
N#Cc1c(N)n(CCNC(=O)c2ccccc2)c2nc3ccccc3nc12,0.1,2.5,-69.8,-0.4%,-26.6,
FC(F)(F)C(Oc1nc(NC2CCCCC2)nc(N2CCOCC2)n1)C(F)(F)F,14.7,-1.5,0.3,4.1%,-26.9,
CC(C)(C)C(=O)Nc1nnc(SCC(=O)Nc2ccc3c(c2)OCO3)s1,-3.5,-8.6,-0.4,1.7%,-25.5,
O=C(Cn1nc(-c2ccco2)ccc1=O)Nc1cc(Cl)ccc1Cl,·,-1.2,-1.8,·,·,
O=C1C2C3C=CC(C3)C2C(=O)N1Cc1ccccc1 (centres undefined),5.6,-3.0,0.7,1.9%,8.5,
CC(C)CNC(=O)CN1C(=O)NC2(CCCc3ccccc32)C1=O (centres undefined),·,4.8,-0.5,·,·,
CCOC(=O)c1c(C)[nH]c(C(=O)CN2CCOCC2)c1C,3.5,-7.8,-0.8,-9.2%,-29.1,
O=C(CSCc1ccc(Br)cc1)Nc1ccc(S(=O)(=O)N2CCCCCC2)cc1,-7.2,5.7,0.0,1.1%,3.1,
COc1ccc(CC(=O)Nc2cccc(-c3nnc(-c4ccc(C)cc4)o3)c2)cc1OC,22.9,17.3,7.5,0.8%,-46.4,
Cc1cc(NC(=O)c2cc(CC(C)C)on2)n(-c2ccccc2)n1,0.6,0.6,1.5,13.2%,-17.9,
Cc1cc(C)nc(SCc2ccc(C(=O)N/N=C/c3ccccc3C(=O)O)cc2)n1,-1.6,-1.3,0.3,-4.8%,·,
Cc1nc(C(=O)NNC(=O)c2ccccc2Cl)c(C(F)(F)F)o1,·,10.3,-0.2,-5.2%,·,
O=C(Nc1ccc(Cl)cn1)C1CCN(S(=O)(=O)c2cccs2)CC1,·,-4.6,-4.0,3.0%,·,
O=C(COC(=O)c1cccc(NS(=O)(=O)c2ccc(F)c(F)c2)c1)NC(=O)NC1CCCC1,7.5,-5.0,-1.0,0.2%,-28.6,
CCOC(=O)c1cn(-c2ccc(F)c(F)c2F)c2c(F)c(F)c(F)cc2c1=O,4.2,-2.1,-0.4,-4.1%,-19.4,
C=CCNC(=S)N/N=C(\C)c1ccccn1,-12.1,93.8,0.2,10.1%,-19.8,
O=C(N/C(=C\c1ccco1)C(=O)N1CCCC(CO)C1)c1ccccc1 (centres undefined),·,-12.2,-0.5,·,·,
Cc1ccc(S(=O)(=O)Nc2ccc3nc(-c4cccn4C)[nH]c3c2)cc1,-0.2,-2.6,0.2,4.9%,-20.0,
CCn1nnc(-c2ccc(N)cc2)n1,13.9,93.4,-0.7,?,·,
Cc1ccc(C(=O)c2ccccc2C(=O)OCC(=O)Nc2cccc([N+](=O)[O-])c2)cc1,2.4,2.8,7.0,-5.4%,-23.1,
CCOC(=O)c1sc2nc(CN3CCCCC3)nc(Cl)c2c1C,7.8,72.6,-3.4,7.1%,·,
Cc1cc(NC(=O)CSc2nc(=O)n3cc(Cl)ccc3n2)no1,·,-0.9,-0.6,·,·,
C=CCN1C(=O)N(/C=C/C)c2cccc3cccc1c23,5.1,-5.5,3.4,-9.9%,-29.0,
CC(=O)Nc1ccc(N2C(=O)CSC2c2cccc(Br)c2)cc1 (centres undefined),·,-6.5,-0.1,·,·,
c1ccc(CN2CCC3(CC2)Nc2ccccc2S3)cc1,·,-8.8,-2.6,·,·,

# 6 consecutive compounds already listed:
SMILES,Arbovirus anti,Mtb bLac sens,RecA splice inh,Mtb growth,YopH inh,others
Cc1ccc(C(=O)c2ccccc2C(=O)OCC(=O)Nc2cccc([N+](=O)[O-])c2)cc1,2.4,2.8,7.0,-5.4%,-23.1,
CCOC(=O)c1sc2nc(CN3CCCCC3)nc(Cl)c2c1C,7.8,72.6,-3.4,7.1%,·,
Cc1cc(NC(=O)CSc2nc(=O)n3cc(Cl)ccc3n2)no1,·,-0.9,-0.6,·,·,
C=CCN1C(=O)N(/C=C/C)c2cccc3cccc1c23,5.1,-5.5,3.4,-9.9%,-29.0,
CC(=O)Nc1ccc(N2C(=O)CSC2c2cccc(Br)c2)cc1 (centres undefined),·,-6.5,-0.1,·,·,
c1ccc(CN2CCC3(CC2)Nc2ccccc2S3)cc1,·,-8.8,-2.6,·,·,
